Assay outcomes (PubChem)
miR-21 reporter = raises the signal of a miR-21 reporter. Potency, µM (top dose mostly 38.3 µM), without a hit: at the highest dose reporter change, positive = more light. 340,000 tested, under 10 active. HeLa miR-21 FLuc reporter, luciferase, 48 h; active = well fitted rising curve with a large enough effect; inconclusive = small, poorly fitted or top-dose-only effect; inactive = no such curve, though single readings can be large or run the other way;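 further: % of control where 0% means no effect; miR-21 action dims this reporter so a rising signal means less miR-21 action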
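HeLa cells stably expressing CMV-driven firefly luciferase with a downstream miR-21 binding sequence, endogenously expressing miR-21, were treated with titrations (up to about 40uM final) for 48 hours at 37 degree Celsius. Luciferase luminescence was read after lysis.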
Rango release inh = inhibition of RanGTP-driven Rango-importin beta dissociation; O95149+P62826; Biochemical FRET Rango-importin beta, RanGTP-induced dissociation; Potency, µM (top dose mostly 46.1 µM), for inactives: at the top dose activity change, negative = inhibition; hit rate 0.071% among 340,000; active means falling FRET ratio curve, often poorly fitted, with flat reads before Ran was added; inconclusive means other falling curves, or compound fluorescence or quenching; inactive means flat or rising ratio curve;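 further: potency means the concentration at half of the fitted maximal effect; % of control where 0% means no effect; nearly all actives have a fitted effect of over 45% in size; -100% = wells without RanGTP and RCC1; the record marks most hits as doubtful in a second field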
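Recombinant Rango FRET biosensor (EYFP–snurportin 1 IBB–cerulean CFP10) at 0.1 uM premixed with 0.25 uM importin beta in PBS, 1 mM DTT, 0.02% Tween-20, 0.1% BSA. Compound added 5 min; RanGTP-RCC1 (0.6 uM Ran, 2 mM GTP, 0.2 uM RCC1) then triggers release, read at 45 min.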
Rango complex inh = Rango-importin beta binding inhibition; Q14974; Rango CFP/YFP FRET sensor + importin beta, 45 min; Potency, µM (series often up to 92.2 µM), inactives show at the top dose inhibition of complex formation; hit rate 0.031% among 340,000; AID 540263; active = rising FRET ratio curve, often small or poorly fitted; inconclusive = mostly compound fluorescence or quenching in the first reads; inactive = flat curves in all reads;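 further: potency means the concentration at half of the fitted maximal effect; 0% = DMSO wells and 100% = buffer wells lacking importin beta; nearly all actives have a fitted effect of over 15% in size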
Target sequence (Q14974 whole entry, looked up): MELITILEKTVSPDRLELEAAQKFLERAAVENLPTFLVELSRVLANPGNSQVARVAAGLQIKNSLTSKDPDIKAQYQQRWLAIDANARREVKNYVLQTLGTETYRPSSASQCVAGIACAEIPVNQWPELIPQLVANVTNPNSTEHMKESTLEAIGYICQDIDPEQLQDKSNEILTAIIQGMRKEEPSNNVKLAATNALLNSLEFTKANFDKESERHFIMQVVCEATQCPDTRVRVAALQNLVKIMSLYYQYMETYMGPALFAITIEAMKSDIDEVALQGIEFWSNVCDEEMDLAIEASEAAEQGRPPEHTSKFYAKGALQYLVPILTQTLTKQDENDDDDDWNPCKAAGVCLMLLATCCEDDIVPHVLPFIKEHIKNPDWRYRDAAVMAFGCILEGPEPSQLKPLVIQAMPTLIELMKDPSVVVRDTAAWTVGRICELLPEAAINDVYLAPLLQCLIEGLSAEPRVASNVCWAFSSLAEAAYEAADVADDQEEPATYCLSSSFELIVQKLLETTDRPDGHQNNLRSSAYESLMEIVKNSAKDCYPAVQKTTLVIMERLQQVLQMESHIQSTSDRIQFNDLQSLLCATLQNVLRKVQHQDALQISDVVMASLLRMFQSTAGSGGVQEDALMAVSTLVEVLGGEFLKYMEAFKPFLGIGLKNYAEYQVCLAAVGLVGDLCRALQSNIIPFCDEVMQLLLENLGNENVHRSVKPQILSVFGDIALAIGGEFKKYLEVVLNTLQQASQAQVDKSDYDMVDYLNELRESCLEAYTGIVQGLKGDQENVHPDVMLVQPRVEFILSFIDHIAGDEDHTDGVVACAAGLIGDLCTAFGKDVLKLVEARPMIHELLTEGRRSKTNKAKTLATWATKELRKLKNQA
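Inhibition scored from the CFP 486 nm/YFP 530 nm FRET ratio 45 min after adding 0.125 microM importin beta to 50 nM Rango biosensor preincubated 5 min with compound (room temperature, PBS with DTT, Tween-20, BSA). No-importin wells as positive control.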
GLA inh pH 4.5 = inhibitors of human alpha-galactosidase A at pH 4.5; P06280; purified enzyme, 4-MU-alpha-Gal fluorescence, pH 4.5; activity change, negative = inhibition, % at 105 µM; 230,000 tested, under 10 active; AID 1467; inconclusive = small, poorly fitted or top-dose-only inhibition, or a rising curve; inactive = flat fitted curve, though single readings scatter; no compound was filed as active;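 further: 0% = full activity with enzyme and -100% = basal without enzyme; dose as in the result columns while the protocol names 77 µM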
The depositor's hits bear a star; u = inconclusive; x = not tested or not shown; & = joins results of further samples. The list is partial. The share of hits here may be higher or lower than overall.

miR-21 reporter | GLA inh pH 4.5 | compound | Rango complex inh | Rango release inh
0% | x | CCC(C)[C@H](NC(=O)N1CC(=O)Nc2ccccc21)C(=O)N[C@@H](Cc1c[nH]c2ccccc12)C(=O)O (stereo partly specified) | -0.4% | 2%
-70% | x | Cc1ccc(-c2nc(-c3ccncc3)no2)cc1C | 2.8% | -5%
6% | -3 | CCOC(=O)N1CCC(n2c(SCC(=O)NCc3ccco3)nc3ccsc3c2=O)CC1 | 5.5% | 6%
-1% | x | O=C(COc1ccc2ccccc2c1)NNC(=O)c1ccccc1 | -3.1% | 0%
6% | -3 | c1ccc(OCc2noc(CN3CCC(C4CCCCC4)C3)n2)cc1 (stereo unspecified) | 2.2% | -2%
17% | 2 | CCOc1cc(S(=O)(=O)NCc2ccncc2)ccc1Cl | u | 4%
-1% | 0 | COc1ccc(C(=O)N/C(=C/c2cccnc2)C(=O)NCc2ccco2)cc1OC | 1.5% | 5%
-30% | x | CN(C(=O)c1ccc(Br)o1)C1CCCCC1 | 3.6% | 25%
u | -7 | O=C1CCC2S/C(=C/Nc3ccc(C(F)(F)F)cc3)C(=O)N12 (stereo unspecified) | 4.0% | 10%
-7% | x | Nc1ccc2nc(CCCCc3nc4ccccc4[nH]3)[nH]c2c1 | u | -11%
-2% | -2 | CCCCN1C(=O)NC(NC(C)=O)(C(F)(F)F)C1=O (stereo unspecified) | 0.3% | 1%
-16% | 1 | CCN(CC)CCCOc1nc(C)nc2c1oc1ccccc12 | -1.1% | -2%
-6% | 14 | COCCNC(=O)COC(=O)CSCc1nc2ccccc2s1 | u | -16%
19% | 1 | O=C(c1cc(-c2ccncc2)nc2ccccc12)N1CCN(c2ccccn2)CC1 | 0.7% | 19%
x | x | CC(=O)c1ccc(N2CCN(C(=O)c3cc(S(=O)(=O)N4CCOCC4)ccc3C)CC2)cc1 | 8.6% | -6%
x | x | O=C(c1ccc(S(=O)(=O)NCc2ccco2)cc1)N1CCN(c2ccc(F)cc2)CC1 | 2.1% | 10%
3% | x | Cc1ccccc1C(=O)N1CCN(S(=O)(=O)c2cccs2)CC1 | 0.2% | -7%
x | x | CSCCC(NC(=O)c1ccco1)C(=O)N1CCN(c2ccccc2O)CC1 (stereo unspecified) | 0.6% | -1%
x | x | Cc1ccc(C)c(NC(=O)C(OC(=O)c2ccc(NC(=O)CC#N)cc2)c2ccccc2)c1 (stereo unspecified) | -2.8% | 7%
-10% | 0 | CCN(C(=O)COC(=O)c1cccnc1SC)C1CCS(=O)(=O)C1 (stereo unspecified) | -1.9% | 10%
x | x | Cc1ccc(OCCOC(=O)C2CCN(S(=O)(=O)c3ccc(C)c(C)c3)CC2)cc1 | 5.4% | -9%
-15% | x | O=C(/C=C(\O)c1ccccc1)C(=O)NNC(=O)c1ccccc1 | -0.3% | -1%
17% | 10 | Cc1ccc(C)c(NC(=O)CSc2nc3nc(-c4cccs4)cc(C(F)(F)F)c3c(=O)[nH]2)c1 | -2.1% | -1%
-4% | -21 | CCOc1ncccc1C(=O)OCC(=O)c1ccccc1Br | -0.4% | 10%
1% | 0 | COC(=O)[C@@H](NC(=O)N1CCN(c2cccc(C(F)(F)F)c2)CC1)C(C)C | 1.3% | 2%
7% | x | CCN(c1ccc(OC)cc1)S(=O)(=O)c1cc(-c2cc(C)no2)ccc1OC | 0.6% | -5%
x | x | CN(Cc1ccccc1F)C(=O)c1ccc(NS(=O)(=O)c2ccc3[nH]c(=O)[nH]c3c2)cc1 | -0.7% | 3%
-4% | x | CC1CCCCN1CCCNC(=O)c1ccc(N2CCCC2=O)cc1 (stereo unspecified) | -5.1% | -13%
18% | -25 | COc1ccc(-c2cnnc(N/N=C/c3ccc(-c4ccc([N+](=O)[O-])cc4)o3)n2)cc1 | -0.5% | -18%
-3% | -21 | O=C1NCCCN1Cc1ccc(F)cc1Cl | -1.0% | -5%
18% | -9 | CC(=O)Nc1ccc(NC(=O)C(=O)c2cn(CC(=O)N3CCCCC3)c3ccccc23)cc1 | u | -13%
-6% | -17 | O=C(NC(=S)Nc1nc(-c2ccccc2)cs1)c1ccco1 | 2.1% | -4%
x | x | COC(=O)c1nc(-c2ccccc2)nc(-c2ccccc2)c1C(=O)OC | -0.7% | -5%
-10% | 4 | Cc1cc(C)n(-c2cc(N3CCOCC3)ncn2)n1 | 3.2% | 1%
0% | 6 | COC(=O)c1ccccc1-c1ccc(C=O)o1 | 1.6% | -4%
-3% | -4 | CC1(C)CC(=O)C(Sc2nnc(-c3ccc(O)cc3)n2CC2CCCO2)C(=O)C1 (stereo unspecified) | 2.4% | 0%
3% | 4 | CCOc1ccccc1N1C(=O)CC(Sc2n[nH]c(-c3ccccc3)n2)C1=O (stereo unspecified) | -3.5% | -1%
-14% | -2 | Cc1ccc(-n2nnnc2-c2nc3ccccc3s2)cc1 | u | 1%
1% | -23 | CCCCOC(=O)CSC1=C(C#N)C(c2cccnc2)C(C(=O)OCC)=C(c2ccccc2)N1 (stereo unspecified) | -1.6% | 2%
0% | x | O=C(CCN1C(=O)/C(=C/c2ccc(F)cc2)SC1=S)NCCCn1ccnc1 | -3.8% | -1%
0% | x | O=C(CCCCCNC(=O)N1CCn2c1nc1ccccc12)NCc1ccccc1Cl | -1.8% | -1%
26% | 4 | Cc1nnsc1C(=O)N/N=C/c1ccc2ccccc2c1O | u | u
-38% | x | Cc1ccc2nc(C3CCCCC3)[nH]c2c1 | -1.5% | 13%
-5% | 3 | CCC(C)NC(=O)Cn1cc2c(n1)CCC(C)C2 (stereo unspecified) | -1.6% | -10%
-4% | 4 | Oc1ccc(C(=S)N2CCCCC2)cc1Cl | 1.4% | 2%
0% | -2 | COc1ccc(Nc2nc(C)cc(C)c2C(N)=O)c(OC)c1 | -0.3% | 3%
x | x | O=C(Cn1ccnc1)c1ccc(O)c(O)c1 | -4.0% | -12%
-1% | 1 | CCCCC(c1nnnn1CC1CCCO1)N1CCN(c2ccccc2)CC1 (stereo unspecified) | 5.1% | u
-9% | -4 | O=S(=O)(/C=C/c1ccccc1)NC1CCCCCCC1 | 3.4% | -1%
-8% | 0 | CCc1ccc(N2CN=c3s/c(=C\c4ccccc4)c(=O)n3C2)cc1 | -1.3% | 7%
-6% | 4 | O=c1cc(CN2CCN(c3ccc(F)cc3)CC2)nc2sccn12 | u | u
-18% | 2 | Clc1ccc(COn2ccnc2)cc1Cl | 4.9% | -15%
x | x | CN(C)S(=O)(=O)c1ccc(N2CCCC2)c(C(=O)OCC(=O)N2CCN(c3ccccc3)CC2)c1 | 1.4% | -11%
-4% | -7 | CCOC(=O)N1CCN(S(=O)(=O)c2cc(OCC(N)=O)c(C)cc2Cl)CC1 | -0.6% | 1%
x | x | Cn1c(N)c(C(=O)COC(=O)COc2ccccc2Cl)c(=O)n(C)c1=O | -5.5% | 18%
-33% | 7 | COc1ccccc1-c1ccc(Nc2cccc(C(F)(F)F)c2)nn1 | 4.8% | 1%
-47% | 13 | N#Cc1nc(-c2cccs2)oc1NCCc1ccccc1 | 2.6% | 6%
0% | x | Cn1c(SCC(=O)NC2CC2)nnc1-c1ccccn1 | -4.1% | 0%
0% | -2 | CC(=O)Nc1ccc(OCC(O)CN2CCN(S(=O)(=O)c3ccc(NC(C)=O)cc3)CC2)cc1 (stereo unspecified) | -3.6% | 0%
-5%&2% | x | CCC1CN(C(=O)NCc2cccc(OC)c2)c2ccccc2O1 (stereo unspecified) | -2.5% | 7%

The list goes on:
miR-21 reporter | GLA inh pH 4.5 | compound | Rango complex inh | Rango release inh
-3% | 6 | CCOC(=O)C1=CSC2=NS(=O)(=O)CCN12 | -2.8% | -11%
10% | x | CC(C)c1ccccc1OCC(=O)N1CCCCCCC1 | 1.6% | 11%
0% | x | CCOc1ccc(NC(=O)CSc2nnnn2-c2ccc(C(N)=O)cc2)cc1 | -2.8% | 4%
13% | x | COc1cccc(NS(=O)(=O)c2ccc3c(c2)NC(=O)C(C)S3)c1 (stereo unspecified) | 4.9% | -12%
-13% | -6 | CC1=C(C(=O)OCC(C)C)[C@]23C(=O)c4ccccc4[C@@]2(O1)OC(N)=C3C#N | 1.4% | 10%
-29% | -18 | NNC(=O)c1cccc(COc2cccc(Br)c2)c1 | -0.9% | -10%
0% | -2 | COc1cccc(OC)c1C(=O)NC(C)C12CC3CC(CC(C3)C1)C2 (stereo unspecified) | 2.4% | -18%
-16% | -3 | COc1ccc(-n2c(C)cc(C(=O)Cn3nc(C(=O)O)c4ccccc4c3=O)c2C)cc1 | 1.9% | 14%
-14% | 0 | CCOc1ccc(NC(=O)CN2C(=O)C3CC=CCC3C2=O)cc1 (stereo unspecified) | -2.6% | -15%
-4% | -16 | CCOC(=O)c1cc(-c2ccc(Cl)cc2)nc2c1c(C)nn2CCC#N | -5.4% | -10%
-1% | 6 | CCc1nnc(NC(=O)c2ccc(S(=O)(=O)N3CCCCC3C)cc2)s1 (stereo unspecified) | -2.3% | 12%
-4% | 2 | C=CCNCCOc1cccc(Br)c1 | 6.6% | 1%
x | x | CN(c1ccccc1)S(=O)(=O)c1cccc(C(=O)NC2CCCCC2)c1 | 0.5% | u
2% | x | Cn1c(SCC(=O)Nc2cccc(F)c2)nc2c(c1=O)SCC2 | -0.2% | 10%
8% | x | COc1ccc(NC(=O)CCNC(=O)Cn2cnc3ccccc3c2=O)cc1OC | -0.1% | 1%
3% | 7 | CC1CCCN(C(=O)Cn2c(=O)oc3ccccc32)C1 (stereo unspecified) | -1.0% | -5%
0% | x | O=Cc1ccc(OC(=O)CCCCC(=O)Oc2ccc(C=O)cc2)cc1 | 4.2% | -8%
x | x | CCOc1cc(N2CCOCC2)c(OCC)cc1NC(=O)COc1cccc(CC)c1 | -1.8% | 11%
x | x | O=[N+]([O-])c1ccc(Cl)cc1P(=O)(O)c1cc(Cl)ccc1[N+](=O)[O-] | 3.5% | 14%
u | 3 | Cc1ccc2nc(NC(=O)c3ccco3)sc2c1 | -1.1% | -8%
-13% | -1 | CO/C([O-])=N/c1c[n+](-c2ccc(Cl)cc2)no1 | 0.1% | 21%
-7% | 11 | COC(=O)CSc1nc2cc3c(cc2cc1C)OCCO3 | -0.8% | 10%
0% | 4 | COc1ccc(OC)c(C2C(C(N)=O)=C(C)Nc3nc(-c4cccc(Cl)c4)nn32)c1 (stereo unspecified) | -2.6% | -4%
-2% | x | COc1ccc(CNC(=O)CCCSc2ccccc2)cc1 | -2.2% | -6%
-1% | -2 | COCC(=O)N/N=C(\C)CC(=O)NCc1ccco1 | -1.3% | 1%
-23% | x | O=C(Nc1cccc(-c2nn[nH]n2)c1)c1cccs1 | 2.3% | 4%
6% | -6 | Cc1cc2cc(C(c3nnnn3Cc3ccco3)N3CCc4ccccc43)c(=O)[nH]c2cc1C (stereo unspecified) | -3.8% | -28%
-3% | x | Cc1ccc(NC(=O)c2ccsc2)cc1NS(C)(=O)=O | -0.1% | -3%
-10% | -4 | O=C(COc1ccccc1F)NCc1ccc(-n2cccc2)cc1 | 0.3% | -2%
6%&12% | x | Cc1ccccc1Cn1c2ccccc2c2cnn(CC(=O)NCc3ccccn3)c(=O)c21 | 2.5% | 0%
-2% | x | COc1ccc(CN(CC(=O)NC2CCCC2)C(=O)c2csnn2)cc1 | -1.2% | -18%
x | -4 | CCN(CC)C(=O)c1cccc(C)c1 | -0.6% | -11%
-5% | x | CC(CN1CCN(C/C=C/c2ccccc2)CC1)c1ccccc1 (stereo unspecified) | -1.5% | 1%
-8% | -5 | Cn1c(CCN2CCOCC2)nc2cc(NC(=O)COc3ccccc3)ccc21 | 1.7% | -23%
-26% | 6 | CCOc1ccc2nc(SC3CC(=O)N(c4ccc(OC)cc4OC)C3=O)sc2c1 (stereo unspecified) | 0.6% | 3%

Full records as entered above.
CC(CN1CCN(C/C=C/c2ccccc2)CC1)c1ccccc1 (stereo unspecified) in the list: miR-21 reporter = -5%; GLA inh pH 4.5 = x; Rango complex inh = -1.5%; Rango release inh = 1%
COc1ccc(CNC(=O)CCCSc2ccccc2)cc1 in the list: miR-21 reporter = -2%; GLA inh pH 4.5 = x; Rango complex inh = -2.2%; Rango release inh = -6%
